PMP22 txn: modulates PMP22 transcription in S16 Schwann cells; 43,000 tested, 2% active; Potency, µM (top dose mostly 57.5 µM), inactives show at the top dose activity change, negative = inhibition, most hits filed as inhibitors; S16 Pmp22-F2sN Schwann cells (luciferase reporters placed in the Pmp22 gene), FLuc/NLuc coincidence luminescence, 24 h; AID 1508649; active = clear falling dose curves in both reporters; inconclusive = both reporters move, but less clearly or upward; inactive = either reporter flat; the % is the NLuc reporter signal; note: % is set by controls: 0 for no effect and ±100 for the full control effect; some results filed as inactive show a strong effect at the top dose
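Luminescent read-out of sequential FLuc and NLuc signals from a reporter embedded in the Pmp22 3' UTR of S16 Schwann cells, taken after 24 h compound exposure at 37C; compounds reducing both signals score as inhibitors of expression.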
HTT promoter inh: inhibitors of huntingtin promoter activity; HEK293 HTT promoter firefly luciferase reporter (activity 0% = vehicle and -100% = no light), 24 h; Potency, µM (highest dose often 57.5 µM), for the others: top-dose activity change, negative = inhibition, most hits filed as inhibitors; 48,000 tested, 0.93% active; active = well fitted inhibition curve with a large enough effect; inconclusive = small, poorly fitted or top-dose-only effect; inactive = no such curve, though single readings can be large or run the other way; note: nearly all actives have a fitted effect of over 50% in size
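Quantitative HTS used concentration series of up to 57.5 uM final on HEK293 luciferase reporter cells, 24 h at 37 degrees C. Readout was Dual-Glo firefly luminescence.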
* marks the source's active call; other numbers are inactive results; ? = inconclusive; · = no result given; & = joins results of further samples; [ ] = dose if it differs, or a comment. Potency is the fitted concentration of half-maximal effect.

Below each compound – HTT promoter inh | PMP22 txn
- COc1ccccc1C(=O)Oc1ccc(C(c2c(C)[nH][nH]c2=O)c2c(C)[nH][nH]c2=O)cc1
    1%[11.5 µM] | 15%
- Cc1nn(S(=O)(=O)c2ccc(Br)cc2)c(C)c1S(=O)(=O)N1CCCCCC1
    -5% | -26%
- O=C(CSc1n[nH]c(-c2ccccc2Cl)n1)N1CCN(c2ccc(F)cc2)CC1
    -20% | -28%
- CCCN(CCC)c1nc(-c2ccccc2F)nc2ccccc12
    -7% | -2%
- CCN(CC)CCOC(=O)c1ccc(NC(=O)c2cc3c(=O)n(CC)c4ccccc4c3s2)cc1
    -6% | ?
- CC(=O)c1cc2c(cc1N/C(=N/S(=O)(=O)c1ccccc1)c1ccc(Cl)cc1)OCO2
    -9% | 10%
- COc1ccc(NC(=O)CC2C(=O)N(c3ccc(F)cc3)C(=O)N2CCc2sccc2C)cc1 (stereo not given)
    ? | 1%
- Cc1ccccc1NC(=O)Cn1c(=O)n(Cc2ccco2)c(=O)c2cccnc21
    -1% | 8%
- Cc1cc2c(n1-c1ccc(C(=O)NCCc3ccccc3)cc1)CCC(C)C2 (stereo not given)
    30% | ?
- CCCCN(Cc1ccccc1)S(=O)(=O)c1cc(Br)cc2c1N(C(C)=O)CC2
    -17% | -5%
- Cc1cccc(C)c1OCC(=O)Nc1c(C(=O)c2ccc(Br)cc2)oc2ccccc12
    0% | -13%
- CCOc1ccccc1CNC(=O)CCC(=O)N1CCSc2ccccc21
    ? | -20%
- CCCCNC(=O)c1cccc(-n2cnc3cccnc32)c1C
    -17% | -2%
- CCSc1nnc2c(n1)OC(c1ccc(OC)c(OC)c1)N(C(C)=O)c1ccccc1-2 (stereo not given)
    -16% | -29%
- NC(=O)c1nc(-c2ccc(F)c(F)c2)nc2c1[nH]c(=O)n2-c1cccc(Cl)c1
    -11% | -22%
- CCCCN(CC)CCNC(=O)C1CCN(S(=O)(=O)c2cccc3nsnc23)CC1
    2% | -83%
- Cc1cc(C)cc(NC(=O)C(=O)NCC(c2ccc3c(c2)OCO3)N2CCN(C)CC2)c1 (stereo not given)
    33%[activator] | ?
- CC(=O)c1cccc(NC(=O)CCc2c(C)nc3nc(CN)nn3c2C)c1
    -6% | ?
- CCOc1ccccc1-c1nc(-c2ccc(-c3ccccc3)nc2OCC)no1
    -9% | ?
- Cc1cc(C)cc(NC(=O)C2CCCN2S(=O)(=O)c2ccc3c(c2)C(C)(C)C(=O)N3C)c1 (stereo not given)
    -26% | 1%
- Cc1ccc2c(CC(=O)Nc3ccccc3C(F)(F)F)coc2c1C
    -1% | -18%
- CCc1ccc(S(=O)(=O)NCCc2csc3nc(-c4ccccc4)nn23)s1
    ? | ?
- CCS(=O)(=O)c1ncc(Cl)c(C(=O)Nc2c(C(=O)c3ccc(C)cc3)oc3ccccc23)n1
    -9% | 2.1µM*
- CC(=O)CC(c1ccccc1)c1c(O)c2ccccc2oc1=O (stereo not given)
    7%&2% | ·
- Cc1cc(S(=O)(=O)Nc2cc3c(cc2Cl)n(C)c(=O)c(=O)n3C)ccc1F
    -12% | -6%
- CC(C)c1ccc(OCC(=O)NCC(c2ccc(Cl)cc2)N2CCOCC2)cc1 (stereo not given)
    ? | -28%
- CCC(C(=O)Nc1ccc(C(=O)OC)cc1)n1nc(-c2ccc(C)cc2)c2c(c1=O)CCCC2 (stereo not given)
    ? | ?
- CNc1nc(Oc2ccc(=O)n(C)n2)nc(N2CCOCC2)n1
    3% | 5%
- Nc1cccc(-c2csc(NC(=O)CCCCCCC(=O)NO)n2)c1
    200%[activator] | ·
- CCOc1ccc(C(=O)Nc2ccc(-c3nc4cc(CC)ccc4o3)cc2)cc1
    0% | 22%

(cont.)
Below each compound – HTT promoter inh | PMP22 txn
- Cc1ccc(NC(=O)Cn2c(=O)n(CC(=O)NCCc3ccccc3)c(=O)c3ccccc32)cc1C
    -2% | ?
- COC(=O)C1=C(C)NC(C)=C(C(=O)OCC(C)=O)C1c1ccccc1[N+](=O)[O-] (stereo not given)
    9% | ·
- CCOc1cccc(C2c3c(-c4cc(C)ccc4O)n[nH]c3C(=O)N2Cc2ccco2)c1 (stereo not given)
    ? | ?
- Cc1ccc(-c2ccc(CCC(=O)O)n2-c2ccc(C(N)=O)cc2)cc1
    -11% | -36%
- Cc1cc(C)c2c(=O)cc(C(=O)Nc3ccc(S(=O)(=O)Nc4nc(C)cc(C)n4)cc3)oc2c1
    14% | -47%
- Cc1ccc(Cl)cc1NC(=O)CN1C(=O)CSc2ccc(S(=O)(=O)N3CCCC3)cc21
    -17% | 17%
- Fc1ccc2ncc3c(-c4ccccc4)n[nH]c3c2c1
    -26% | -17%
- COc1ccc(-c2cc(C(F)(F)F)nc(NCc3ccccc3)n2)cc1OC
    -27% | -11%
- Cc1ccc(C)c(CN2C(=O)c3ccccc3S(=O)(=O)c3ccc(C(=O)NCCC4=CCCCC4)cc32)c1
    -15% | 3%
- Cn1nc(C(=O)Nc2ccc(F)c(Cl)c2)c2c1-c1ccccc1S(=O)(=O)C2
    -17% | ?
- COc1ccc(CNc2oc(COc3cccc(C)c3)nc2C#N)cc1
    ? | 8%
- COc1ccc(C(=O)Oc2ccc(C(c3c(C)[nH][nH]c3=O)c3c(C)[nH][nH]c3=O)cc2)cc1
    -7%[11.5 µM] | 1%
- O=C(COc1ccc(F)cc1)Nc1ccccc1C(=O)OCc1cc(=O)n2ccsc2n1
    -1% | ?
- CN(C)S(=O)(=O)c1ccc2c(c1)N(CC(=O)N1CCC(C(N)=O)CC1)CCS2
    -5% | -3%
- COc1ccc(CNS(=O)(=O)c2cc3c(cc2C)n(C)c(=O)c(=O)n3C)cc1
    -3% | 0%
- CCC(C(=O)NCc1ccco1)n1nc(C)c2c(C)n(-c3ccc(C)cc3)nc2c1=O (stereo not given)
    ? | ?
- COc1ccc(-c2nc(S(=O)(=O)c3ccc(Cl)cc3)c(N3CCCCCC3)o2)cc1
    -3% | -3%
- CN(C)CCNC(=O)c1ccc(-n2c(-c3ccccc3)cc3c2CCCC3)cc1
    -5% | 20µM*
- CCCOc1ccc(CC2C(=O)Nc3ccc(Br)cc32)cc1 (stereo not given)
    -22% | ?
- CNCCC(Oc1ccc(C(F)(F)F)cc1)c1ccccc1 (stereo not given)
    -9% | ·
- COc1cccc(C2=NN(S(C)(=O)=O)C(c3cn(-c4ccccc4)nc3-c3cccs3)C2)c1 (stereo not given)
    2% | 5%
- CC(=O)N1c2nc(-c3ccco3)nn2C2(CCCCC2)[C@@H]2CCCC[C@@H]21
    -1% | -15%
- COCCNC(=O)CSc1c(C)cnc2c1c(=O)n(C)c(=O)n2C
    -6% | -3%
- CN(Cc1ccccc1)c1ncnc2onc(-c3ccc(F)cc3)c12
    ? | ?
- CCCNC(=O)CN1C(=O)CSc2ccc(S(=O)(=O)N3CCC(C)CC3)cc21
    -19% | 4%
- Cc1cccc(Oc2ccc(NC(=O)CCC(=O)OCC(=O)c3ccc(Br)cc3)cc2)c1C
    -16% | -2%
- CCOC(=O)c1cc(-c2ccc(OC)cc2)n(CCC(=O)NC2CCCCC2)c1C
    -25% | -4%
- Cn1c(CNC(=O)CSc2n[nH]c(-c3ccccc3Cl)n2)nc2ccccc21
    5% | 18%
- COc1ccc(NC(=O)c2ccco2)cc1NC(=O)COc1ccc(Cl)cc1C
    ? | -13%
- COc1ccc(-c2ccnc3c(-c4ccc(F)cc4)c(C)nn23)cc1OC
    -3% | ?

6 records picked at random from the list so far:
Below each compound – HTT promoter inh | PMP22 txn
- Cc1cc(C)c2c(=O)cc(C(=O)Nc3ccc(S(=O)(=O)Nc4nc(C)cc(C)n4)cc3)oc2c1
    14% | -47%
- CCOc1ccccc1CNC(=O)CCC(=O)N1CCSc2ccccc21
    ? | -20%
- O=C(COc1ccc(F)cc1)Nc1ccccc1C(=O)OCc1cc(=O)n2ccsc2n1
    -1% | ?
- CCCCN(Cc1ccccc1)S(=O)(=O)c1cc(Br)cc2c1N(C(C)=O)CC2
    -17% | -5%
- CCS(=O)(=O)c1ncc(Cl)c(C(=O)Nc2c(C(=O)c3ccc(C)cc3)oc3ccccc23)n1
    -9% | 2.1µM*
- COc1cccc(C2=NN(S(C)(=O)=O)C(c3cn(-c4ccccc4)nc3-c3cccs3)C2)c1 (stereo not given)
    2% | 5%

The results go on:
Below each compound – HTT promoter inh | PMP22 txn
- COc1ccc(N2CC(NC(=O)c3ccc4c(c3)OCO4)CC2=O)cc1 (stereo not given)
    -11% | ?
- Cc1cc(C)c(CSc2nnc(C)n3c2cc2occc23)c(C)c1
    -12% | ?
- Cc1ccc2oc(-c3ccc(C)c(NC(=O)c4ccc(C(C)(C)C)cc4)c3)nc2c1
    -2% | ?
- Cc1cc2[nH]c(=O)c(=O)[nH]c2cc1S(=O)(=O)Nc1ccc(OC(F)(F)F)cc1
    -3% | -2%
- COc1ccc(N2CCN(C(=O)c3nc(-c4ccc(Cl)cc4)n4c3CCCCC4)CC2)cc1
    -12%[11.5 µM] | ?
- COc1ccc(NC(=O)CN(c2cc(C)cc(C)c2)S(=O)(=O)c2c(C)noc2C)cc1Cl
    ? | ?
- Cc1c(Cl)cccc1NC(=O)Cn1c(=O)cc(C)c2c(C)nn(-c3cccc(F)c3)c21
    8% | 1%
- COc1ccc(-c2nc3n(n2)C(c2ccccc2F)C(C(=O)Nc2cccnc2)=C(C)N3)cc1OC (stereo not given)
    -5% | -14%
- CCOC(=O)N1CCc2c(sc3c2c(=O)n(Cc2ccccc2)c(=O)n3Cc2ccc(C)cc2)C1
    -4% | 2%
- COc1ccccc1CNC(=O)CSc1nc(=O)[nH]c2c1CCC2
    -11% | -1%
- O=C(C1CC1)N1CCN(c2nc3ccc(F)cc3s2)CC1
    -7% | -19%
- CC(=O)c1cccc(NC(=O)CCc2c(C)nc3c(-c4ccc(F)cc4)c(C)nn3c2C)c1
    -19% | -2%
- COc1ccc(OC)c(C(=O)c2c(N)c(-c3nc(-c4ccc(C)c(C)c4)cs3)c3ccccn23)c1
    -4% | -13%
- Cc1c(C(=O)N2CCC(C)CC2)c(S(=O)(=O)Nc2ccc(OC(F)(F)F)cc2)c(C)n1C
    ? | 1%
- COc1ccc(NC(=O)CCS(=O)(=O)c2nc(-c3cccs3)cc(C(F)(F)F)n2)cc1OC
    ? | ?
- CCOc1cccc(C(=O)Nc2nc3c(s2)CC(C(C)(C)C)CC3)c1 (stereo not given)
    -5% | -69%
- CC1CC(=O)N(CC(=O)Nc2ccc(OC(F)(F)F)cc2)c2ccccc2S1 (stereo not given)
    -21% | ?
- CC(=O)c1ccc(N2CCN(C(=O)Nc3cn(CC(C)C)c(=O)c4ccccc34)CC2)cc1
    2% | 7%
- Cc1c(C(=O)NCCc2ccc(S(N)(=O)=O)cc2)sc2nc3n(c(=O)c12)CCCC3
    6% | -18%
- COc1cc(C(=O)Nc2cc(C)ccc2OCc2cc(=O)n3cc(C)sc3n2)cc(OC)c1OC
    -8% | 18%
- Cc1ccc(-c2nn3c(C)nnc3c3ccccc23)cc1S(=O)(=O)NCCO
    16% | ?
- COc1ccc(CNC(=O)C2CCN(Cc3nc(-c4ccc(OC)c(OC)c4)oc3C)CC2)cc1
    2% | 18%
- CCCOc1ccc(C2c3c(oc4ccccc4c3=O)C(=O)N2c2nc(C)c(C(=O)OCC)s2)cc1 (stereo not given)
    -12%[11.5 µM] | -11%
- Cc1cc(C)c(NC(=O)Cn2c(=O)n(Cc3ccc(C(=O)NCc4ccc5c(c4)OCO5)cc3)c(=O)c3ccccc32)c(C)c1
    -3% | 11µM*
- COc1ccc(-c2nn(-c3ccc(C)c(Cl)c3)c3c2cnc2cc(OC)c(OC)cc23)cc1
    5% | -21%
- CCc1ccc(-n2nc3cc(C)c(NC(=O)c4cc(OC)cc(OC)c4)cc3n2)cc1
    7% | -19%
- Cc1cc(C)c2oc(C(=O)Nc3sc4c(c3C(=O)NCc3ccco3)CCCC4)cc(=O)c2c1
    0% | 20%
- CCOC(=O)c1c(-c2ccccc2)oc2ccc(OCc3ccccc3Br)cc12
    -12% | -11%
- CCc1c(C)c2ccc3c(c2oc1=O)CN(Cc1ccccc1)CO3
    -36% | ?
- COc1nc(-c2ccc3c(c2)OCO3)n(-c2ccc(NC(=O)CSc3ccccc3)cc2)n1
    3% | ·

Next section
Below each compound – HTT promoter inh | PMP22 txn
- COc1ccc(C2=C(C)C(N3CCC(C(=O)Nc4cc(C)ccc4C)CC3)=NS2(=O)=O)cc1
    -18% | 1%
- Cc1ccc(OC(=O)CSc2nnc(-c3ccc4c(c3)OCO4)o2)cc1
    -17% | -1%
- Cc1ccc(CSc2cn(CC(=O)N3CCCCC3)c3ccccc23)cc1
    -6% | ?
- Cc1ccc(N(Cc2cccs2)C(=O)c2ccccc2[N+](=O)[O-])cc1
    ? | -2%
- CC(C)c1ccc(NC(=O)CNC(=O)Cn2ccc3ccccc3c2=O)cc1
    -11% | 16%
- O=C(Cc1cccs1)Nc1c(C(=O)Nc2ccc(F)cc2)oc2ccccc12
    4% | -15%
- CCOC(=O)c1ccc(NC(=O)CC2C(=O)N(c3cccc(OC)c3)C(=O)N2C2CCCCC2)cc1 (stereo not given)
    ? | ?
- COc1cc(NC(=O)Nc2nnc(N3CCCCC3)s2)cc(OC)c1
    -15% | 9%
- O=C(Nc1ccc(OC(F)(F)F)cc1)c1cc2c(=O)n3ccccc3nc2s1
    -12% | -34%
- CCOC(=O)C(CC)Sc1c(CC)cnc2c1c(=O)n(C)c(=O)n2C (stereo not given)
    -16% | 8%
